Vaccinia inh: blocks a specific stage of Vaccinia orthopoxvirus infection; Vaccinia-infected cells, mCherry/Venus stage reporter fluorescence; active compounds read low; some inactives read as strong as hits; activity change (mCherry), % (no concentration beside the values); AID 1053133; 89,000 compounds, 0.01% hits;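 active means mCherry past -33% and 40 or more points under the early reporter, replicates agreeing; inconclusive means past -33% without that gap or agreement; tested in A549 cells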;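 further: scaled between vehicle wells and reference inhibitor wells; 23 nL library stock went into each well; one replicate is shown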
Vaccinia inh Venus: recorded beside Vaccinia inh, whose call it bears; activity change (Venus), %; measured here: Venus reporter, other viral stage;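 negative = less Venus signal; first of two replicates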
Active calls of the source: *; ? = inconclusive; / = not tested or not shown. This is a subset; rates above refer to the full screens.

SMILES	Vaccinia inh	Vaccinia inh Venus
CO[C@@H]1CN(C)C(=O)c2ccc(NC(=O)c3ccccc3F)cc2OC[C@@H](C)N(C(=O)c2ccccc2F)C[C@H]1C	-10.1	-2.5
C/C=C/c1ccc([C@@H]2[C@@H](CO)N3CCCCN(S(=O)(=O)c4ccc(F)cc4)C[C@H]23)cc1	?	/
CCN(C[C@H]1N[C@H](CO)[C@@H]1c1ccccc1)C(=O)c1ccncc1	2.7	-2.8
COc1ccc(NC(=O)N(C)C[C@@H]2OCCCC[C@@H](C)Oc3ccc(NC(=O)C4CCCCC4)cc3C(=O)N([C@H](C)CO)C[C@@H]2C)cc1	13.2	11.6
O=C(C[C@H]1CC[C@H]2[C@@H](COC[C@H](O)CN2Cc2ccc3c(c2)OCO3)O1)Nc1ccccc1	-18.3	-12.6
C[C@H](CO)N1C[C@H](C)[C@H](CN(C)Cc2ccc(C(=O)Nc3ccccc3N)cc2)Oc2ccc(NC(=O)CCC(F)(F)F)cc2CC1=O	-30.3	-21.6
CS(=O)(=O)N1[C@H](C#N)[C@H](c2ccccc2)[C@H]1CO	5.5	4.1
COc1cccc(C(=O)Nc2ccc3c(c2)C(=O)N(C)C[C@@H](OC)[C@H](C)CN(C(=O)C2CCCC2)[C@H](C)CO3)c1	-20.7	-11.3
C[C@H](CO)N1C[C@H](C)[C@@H](CN(C)Cc2ccc(Oc3ccccc3)cc2)Oc2ccc(NC(=O)Nc3cccc4ccccc34)cc2CC1=O	-14.8	-9.7
COc1ccc(NC(=O)Nc2ccc3c(c2)C(=O)N([C@H](C)CO)C[C@@H](C)[C@@H](CN(C)Cc2ccccc2)O3)cc1	-20.6	-14.6
C[C@H]1CN([C@@H](C)CO)C(=O)Cc2cc(NC(=O)Nc3cccc4ccccc34)ccc2O[C@H]1CN(C)Cc1ccc(C(F)(F)F)cc1	-15.6	-5.2
O=C(Nc1ccc2c(c1)[C@H]1C[C@H](CC(=O)N3CCCCC3)O[C@@H](CO)[C@H]1O2)Nc1ccccc1F	4.7	-0.4
C[C@H]1CN([C@@H](C)CO)C(=O)c2cccc(NS(=O)(=O)c3ccccc3)c2O[C@@H]1CN(C)S(=O)(=O)c1ccccc1	5.8	9.3
C[C@@H]1CCCCO[C@@H](CN(C)Cc2ccc(C(=O)Nc3ccccc3N)cc2)[C@@H](C)CN([C@H](C)CO)C(=O)c2cc(NC(=O)c3ccncc3)ccc2O1	7.4	4.9
CNC(=O)C[C@@H]1CC[C@@H]2[C@H](COC[C@H](O)CN2S(=O)(=O)c2ccc(Oc3ccccc3)cc2)O1	2.0	3.6
CO[C@H]1CN(C)C(=O)c2ccc(NC(=O)c3ccc4c(c3)OCO4)cc2OC[C@@H](C)N(CC2CC2)C[C@H]1C	10.6	1.2
C/C=C/c1cnc2c(c1)C(=O)N([C@@H](C)CO)C[C@H](C)[C@@H](CN(C)C(=O)Nc1ccc(OC)cc1)O2	14.5	13.5
C[C@@H]1CCCCO[C@@H](CN(C)Cc2ccc(C(=O)Nc3ccccc3N)cc2)[C@@H](C)CN([C@H](C)CO)C(=O)c2cc(NS(=O)(=O)c3ccc(Cl)cc3)ccc2O1	1.3	-0.4
Cc1ccc(S(=O)(=O)N(C)C[C@H]2Oc3ccc(NS(=O)(=O)c4ccc(Cl)cc4)cc3C(=O)N([C@@H](C)CO)C[C@H]2C)cc1	-25.4	-16.7
CC(C)NC(=O)Nc1ccc2c(c1)C(=O)N([C@H](C)CO)C[C@H](C)[C@H](CN(C)C(=O)c1ccncc1)OCCCC[C@@H](C)O2	19.1	6.4
Cc1noc(C)c1S(=O)(=O)Nc1ccc2c(c1)CC(=O)N([C@@H](C)CO)C[C@H](C)[C@@H](CN(C)Cc1ccc(-c3ccccc3)cc1)O2	-31.0	-26.7
CC(C)NC(=O)N(C)C[C@@H]1Oc2ncc(C3=CCCCC3)cc2C(=O)N([C@H](C)CO)C[C@@H]1C	24.5	7.2
Cc1noc(C)c1S(=O)(=O)Nc1ccc2c(c1)C(=O)N([C@@H](C)CO)C[C@H](C)[C@H](CN(C)S(=O)(=O)c1ccc(Cl)cc1)O2	9.1	2.9
Cc1ccc(S(=O)(=O)N(C)C[C@H]2Oc3c(NC(=O)Nc4c(C)noc4C)cccc3C(=O)N([C@@H](C)CO)C[C@@H]2C)cc1	-6.3	-8.9
COc1ccc(S(=O)(=O)N(C)C[C@H]2Oc3ncc(C#CC4(O)CCCC4)cc3C(=O)N([C@@H](C)CO)C[C@H]2C)cc1	-6.8	-4.7

Some of the entries above, reformatted.
Each structure is followed by: Vaccinia inh, Vaccinia inh Venus
COc1ccc(NC(=O)Nc2ccc3c(c2)C(=O)N([C@H](C)CO)C[C@@H](C)[C@@H](CN(C)Cc2ccccc2)O3)cc1
    -20.6, -14.6
C[C@H]1CN([C@@H](C)CO)C(=O)Cc2cc(NC(=O)Nc3cccc4ccccc34)ccc2O[C@H]1CN(C)Cc1ccc(C(F)(F)F)cc1
    -15.6, -5.2
O=C(Nc1ccc2c(c1)[C@H]1C[C@H](CC(=O)N3CCCCC3)O[C@@H](CO)[C@H]1O2)Nc1ccccc1F
    4.7, -0.4
C[C@H]1CN([C@@H](C)CO)C(=O)c2cccc(NS(=O)(=O)c3ccccc3)c2O[C@@H]1CN(C)S(=O)(=O)c1ccccc1
    5.8, 9.3

(listing goes on)
SMILES	Vaccinia inh	Vaccinia inh Venus
COc1ccc(S(=O)(=O)Nc2cccc3c2O[C@H](CN(C)Cc2ccncc2)[C@H](C)CN([C@@H](C)CO)C3=O)cc1	22.8	12.0
CO[C@@H]1CN(C)C(=O)c2cc(NC(C)=O)ccc2OC[C@H](C)N(CCC(F)(F)F)C[C@H]1C	1.9	2.6
Cc1noc(C)c1NC(=O)Nc1cccc2c1O[C@H](CN(C)Cc1ccc(C(F)(F)F)cc1)[C@@H](C)CN([C@@H](C)CO)C2=O	-2.3	-1.8
C[C@H]1CN([C@@H](C)CO)S(=O)(=O)c2ccc(-c3ccc(C(=O)N(C)C)cc3)cc2O[C@H]1CN(C)C(=O)C1CCC1	7.4	-3.7
C[C@H]1CN([C@@H](C)CO)C(=O)c2cccc(NC(=O)C3CCCCC3)c2O[C@@H]1CN(C)C(=O)NC1CCCCC1	7.5	3.1
CC(=O)N1[C@@H]2c3ccc(-c4cccc(C(=O)N(C)C)c4)c(=O)n3C[C@H]1[C@H](CO)[C@H]2C(=O)O	1.5	0.4
C[C@H]1CN([C@@H](C)CO)C(=O)c2cccc(NS(C)(=O)=O)c2O[C@H]1CN(C)S(=O)(=O)c1ccccc1	9.9	1.8
Cc1noc(C)c1NC(=O)N[C@@H]1CC[C@H](CC(=O)N2CCCCC2)O[C@@H]1CO	12.4	6.8
O=C(C[C@@H]1CC[C@H]2[C@@H](COC[C@@H](O)CN2Cc2ccncc2)O1)NCc1ccncc1	9.9	2.8
C[C@@H]1CN([C@H](C)CO)C(=O)c2cc(N(C)C)ccc2O[C@@H](C)CCCCO[C@H]1CN(C)C(=O)Nc1cccc2ccccc12	-26.5	-14.5
COc1ccc(S(=O)(=O)N(C)C[C@H]2Oc3ccc(NC(=O)c4ccncc4)cc3CC(=O)N([C@H](C)CO)C[C@H]2C)cc1	15.1	17.3
C[C@@H]1CCCCO[C@H](CN(C)Cc2ccc(Cl)c(Cl)c2)[C@H](C)CN([C@@H](C)CO)C(=O)c2cc(NS(C)(=O)=O)ccc2O1	?	/
C[C@H]1CN([C@@H](C)CO)C(=O)c2cc(NC(=O)Cc3ccccc3)ccc2O[C@@H]1CN(C)C(=O)Nc1ccccc1	3.8	5.5
Cc1ccccc1-c1ccc2c(c1)O[C@@H](CN(C)C(=O)Nc1ccc(F)cc1)[C@H](C)CN([C@@H](C)CO)S2(=O)=O	?	/
C[C@H]1CN([C@@H](C)CO)C(=O)Cc2cc(NC(=O)Nc3ccc(C(F)(F)F)cc3)ccc2O[C@H]1CN(C)S(=O)(=O)c1cn(C)cn1	-14.2	-16.1
CC(C)c1cn(CC[C@H]2CC[C@@H](NC(=O)C3CC3)[C@H](CO)O2)nn1	8.1	15.3
CCC(=O)N1[C@@H]2c3ccc(C4=CCCC4)c(=O)n3C[C@H]1[C@H](CO)[C@H]2C(=O)NCC1CCCCC1	-8.6	-4.1
CC(=O)N1[C@H](CO)[C@H](c2ccccc2)[C@@H]1CN(C(=O)c1cccc(F)c1)C(C)C	10.6	-0.3
Cc1cccc(S(=O)(=O)N2C[C@H]3[C@@H](c4ccccc42)[C@H](CO)N3CC2CCCC2)c1	-17.2	-14.2
CN1[C@@H]2c3ccc(-c4cccc(F)c4)c(=O)n3C[C@@H]2[C@@H](CO)[C@@H]1C(=O)NC1CCC1	12.3	0.3
C[C@@H]1CN([C@@H](C)CO)C(=O)CCCn2nncc2CO[C@H]1CN(C)C(=O)Nc1ccc(N2CCN(C)CC2)cc1	3.3	3.7
Cc1noc(C)c1NC(=O)N(C)C[C@@H]1OCc2ccccc2-c2ccccc2C(=O)N([C@H](C)CO)C[C@H]1C	18.3	10.9
O=C(Nc1ccc(Cl)c(Cl)c1)N[C@H]1CC[C@H](CCNC(=O)c2ccc(F)cc2)O[C@H]1CO	-11.9	-2.6
Cc1noc(C)c1S(=O)(=O)N(C)C[C@@H]1OCCCC[C@@H](C)Oc2ccc(NS(=O)(=O)c3ccccc3)cc2C(=O)N([C@H](C)CO)C[C@@H]1C	10.3	0.6
C[C@@H]1CCCCO[C@@H](CN(C)Cc2ccc(Cl)c(Cl)c2)[C@@H](C)CN([C@@H](C)CO)C(=O)c2cc(NC(=O)Cc3ccccc3)ccc2O1	-31.6	-25.8

The list continues.
SMILES	Vaccinia inh	Vaccinia inh Venus
CO[C@H]1CN(C)C(=O)c2cc(NC(=O)C3CCCCC3)ccc2OC[C@H](C)N(Cc2cccnc2)C[C@@H]1C	-11.9	-12.5
COc1cccc(-c2ccc([C@H]3[C@H](CO)N4CCCCN(CC5CC5)C[C@@H]34)cc2)c1	-6.5	-10.0
C[C@@H]1CN([C@@H](C)CO)C(=O)c2cccc(NS(=O)(=O)c3ccc(F)cc3)c2O[C@H]1CN(C)C(=O)Nc1ccc2c(c1)OCO2	21.1	21.5
O=C(c1ccccn1)N1C[C@H]2[C@@H](c3ccccc31)[C@@H](CO)N2C(=O)CC1CC1	14.1	14.5
COc1ccccc1-c1ccccc1[C@@H]1[C@@H](CO)N(C(=O)C2CCOCC2)[C@H]1C#N	10.0	10.5
C[C@@H]1CN([C@@H](C)CO)C(=O)Cc2cc(NC(=O)CCN3CCOCC3)ccc2O[C@@H]1CN(C)S(=O)(=O)c1cn(C)cn1	14.8	10.4
O=C(C[C@H]1C[C@@H]2c3cc(NC(=O)CC4CC4)ccc3O[C@@H]2[C@H](CO)O1)NCc1ccccc1	-0.8	2.4
C[C@H]1CN([C@@H](C)CO)C(=O)c2cccc(NC(=O)Nc3ccc(F)cc3)c2O[C@@H]1CN(C)Cc1ccc(-c2ccccc2)cc1	17.5	7.6
C[C@@H]1CN([C@@H](C)CO)C(=O)Cc2cc(NS(=O)(=O)c3ccc(Cl)cc3)ccc2O[C@H]1CN(C)C	-0.7	1.7
CNC[C@@H]1OCCCC[C@H](C)Oc2ccc(NS(C)(=O)=O)cc2C(=O)N([C@@H](C)CO)C[C@@H]1C	5.9	5.1
Cc1ccc(S(=O)(=O)N(C)C[C@H]2OCCCC[C@@H](C)Oc3ccc(NC(=O)Nc4ccccc4)cc3C(=O)N([C@H](C)CO)C[C@H]2C)cc1	-9.3	-3.7
COCCN(C[C@H]1N[C@H](CO)[C@@H]1c1ccc(-c2cccc(F)c2)cc1)C(C)=O	-12.0	-4.4
C[C@H](CO)N1C[C@H](C)[C@@H](CN(C)Cc2ccc(C(=O)O)cc2)Oc2ccc(NC(=O)CCC(F)(F)F)cc2C1=O	2.3	7.2
COCC#Cc1cnc2c(c1)C(=O)N([C@H](C)CO)C[C@H](C)[C@H](CN(C)C(=O)CCN1CCCCC1)O2	19.0	2.6
C[C@@H]1CN([C@@H](C)CO)C(=O)c2cc(NS(=O)(=O)c3ccc(F)cc3)ccc2O[C@@H](C)CCCCO[C@H]1CN(C)CC1CC1	5.3	-2.2
Cc1ccc(-c2cnc3c(c2)C(=O)N([C@@H](C)CO)C[C@H](C)[C@@H](CN(C)C(=O)Cc2cccnc2)O3)cc1	?	/
CC(=O)N1[C@H](C(=O)NCc2ccccc2Cl)[C@@H](CO)[C@@H]2Cn3c(ccc(-c4ccncc4)c3=O)[C@@H]21	4.6	-1.7
C[C@@H]1CCCCO[C@H](CN(C)C(=O)Nc2ccc(F)cc2)[C@H](C)CN([C@H](C)CO)C(=O)c2cc(NC(=O)Nc3ccc(F)cc3)ccc2O1	0.9	-3.5
CC(=O)N1[C@H](CO)[C@H](c2ccc(-c3cccnc3)cc2)[C@H]1CNC(=O)C1CCC1	12.4	11.6
CS(=O)(=O)Nc1ccc2c(c1)[C@@H]1C[C@H](CC(=O)NCc3ccc(Oc4ccccc4)cc3)O[C@H](CO)[C@@H]1O2	-20.2	-21.5
COCC#Cc1ccc2c(c1)O[C@@H](CN(C)C(=O)C1CCOCC1)[C@H](C)CN([C@H](C)CO)S2(=O)=O	13.0	9.4
COc1ccc(NC(=O)Nc2ccc3c(c2)CC(=O)N([C@H](C)CO)C[C@H](C)[C@H](CN(C)Cc2ccc(-c4ccccc4)cc2)O3)cc1	-33.9	-22.4
CC(C)NC(=O)Nc1ccc2c(c1)C(=O)N([C@H](C)CO)C[C@H](C)[C@H](CN(C)C(=O)Nc1ccc(C(F)(F)F)cc1)O2	3.3	4.1
O=C(Nc1cccc(F)c1)N1C[C@H]2[C@@H](c3ccccc31)[C@H](CO)N2C(=O)c1ccccn1	4.5	8.3
C[C@H](CO)N1C[C@H](C)[C@@H](CN(C)C(=O)Cc2cccnc2)Oc2cc(-c3cncnc3)ccc2S1(=O)=O	38.2	13.3

Among those listed so far, two contain a cyano group:
SMILES	Vaccinia inh	Vaccinia inh Venus
CS(=O)(=O)N1[C@H](C#N)[C@H](c2ccccc2)[C@H]1CO	5.5	4.1
COc1ccccc1-c1ccccc1[C@@H]1[C@@H](CO)N(C(=O)C2CCOCC2)[C@H]1C#N	10.0	10.5

Assay outcomes (PubChem BioAssay)
